Mtb betalactam: beta-lactam sensitization of Mtb H37Rv; M. tuberculosis H37Rv growth with meropenem, percent inhibition; hits of this screen are not shown here; inhibition, % at 25 µM; actives 0.27% (n = 330,000); AID 434955;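 active means about 74% or more and at least 40 points above the plate without the antibiotic, then above 30% in a dose series; inconclusive means first-round hits that could not be retested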;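 further: growth measured after seven days incubation then overnight dye step; 0% = bacteria only wells and 100% = bacteria with antibiotic; twin plates without the antibiotic show which effects depend on it; some results filed as inactive read as strong as hits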
YopH inh: blocks Yersinia enterocolitica YopH tyrosine phosphatase | fluorescence Ex485/Em525 | inhibition, %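 (about 10 µM by stock and volumes)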 | actives 0.16% (n = 140,000) | AID 898;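 active means inhibition of 50% or more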;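 further: controls were vehicle for no effect and minimum signal wells for full effect; inactives centre near -20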
RecA splice inh: blocks M. tuberculosis RecA intein splicing; AID 2221; cell-free RecA intein splicing, fluorescence; actives 0.75% (n = 290,000); inhibition, %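 (about 9 µM by stock and volumes)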; in the data active means inhibition above about 30%; inconclusive means no clear call, values can overlap the other calls;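 further: 0% = vehicle wells and 100% = reference inhibitor control wells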
Target sequence (P9WHJ3 whole entry, looked up, canonical isoform): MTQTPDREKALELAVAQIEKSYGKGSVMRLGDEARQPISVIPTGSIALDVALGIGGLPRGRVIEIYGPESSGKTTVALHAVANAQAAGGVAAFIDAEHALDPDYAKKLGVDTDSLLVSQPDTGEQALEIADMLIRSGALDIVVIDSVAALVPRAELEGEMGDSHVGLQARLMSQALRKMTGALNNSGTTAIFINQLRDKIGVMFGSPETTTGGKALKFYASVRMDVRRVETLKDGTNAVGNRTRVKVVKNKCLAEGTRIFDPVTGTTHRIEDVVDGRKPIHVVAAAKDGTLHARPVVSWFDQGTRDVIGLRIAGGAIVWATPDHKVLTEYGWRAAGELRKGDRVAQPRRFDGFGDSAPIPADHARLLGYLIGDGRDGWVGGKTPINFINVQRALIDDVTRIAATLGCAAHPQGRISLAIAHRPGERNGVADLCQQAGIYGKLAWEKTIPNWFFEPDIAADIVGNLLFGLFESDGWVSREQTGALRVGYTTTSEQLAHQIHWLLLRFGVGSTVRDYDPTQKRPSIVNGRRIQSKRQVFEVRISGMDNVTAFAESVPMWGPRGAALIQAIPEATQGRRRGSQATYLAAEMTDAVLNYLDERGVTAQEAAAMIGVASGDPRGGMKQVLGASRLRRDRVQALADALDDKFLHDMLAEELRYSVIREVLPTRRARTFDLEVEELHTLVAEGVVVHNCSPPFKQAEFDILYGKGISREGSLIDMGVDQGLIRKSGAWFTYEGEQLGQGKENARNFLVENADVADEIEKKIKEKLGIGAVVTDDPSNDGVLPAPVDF
Arbovirus inh: antivirals against arbovirus infection; arbovirus infection cell-based antiviral screen; inhibition, % at 10 µM; actives 0.37% (n = 200,000); AID 1251;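 active means inhibition from about 30%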;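 further: bluetongue infection of BSR cells; cell survival read as ATP light after 72 h; 0% = infected wells without compound and 100% = uninfected wells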
Mtb growth: M. tuberculosis H37Rv growth inhibitors, H37Rv strain (AID 1626); M. tuberculosis H37Rv growth inhibition; higher % means a stronger effect; one-dose inhibition, % at 10 µM; IC50 in µM for titrated hits; actives 0.95% (n = 220,000);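 active means confirmed in a dose series; inconclusive means inhibition above 80% but not taken into the dose series; inactive means below 80% or under 30% at every dose of the series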;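 further: bacteria incubated seven days before Alamar blue readout; 0% = bacteria only wells and 100% = bacteria with antibiotic wells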
Arbovirus inh repeat: also measured in Arbovirus inh; calls as there; inhibition, %; measured here: 10K subset replicate screen; many hits read low in the repeat;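 first of two repeat runs on a subset; 0% = infected and 100% = uninfected wells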
The depositor's hits bear a star; u = inconclusive; x = not tested or not shown; & = joins results of further samples.

SMILES | Mtb betalactam | YopH inh | RecA splice inh | Arbovirus inh | Mtb growth | others
Cc1c(C(=O)Oc2cccc3ccccc23)cnn1-c1ccccc1 | 98 | -24 | 4.8 | 9 | 27%
CCc1ccc2oc(=O)cc(CN3CCN(c4ccc(F)cc4)CC3)c2c1 | 22 | -18 | 4.1 | 3 | 14%
C=CCn1c(C(C)NC(=O)C(C)(C)C)nc2ccccc21 (stereo not drawn) | -6 | -15 | 1.0 | -3 | -6% | Arbovirus inh repeat=3
Cn1c(=O)[nH]c(=O)c2c1nc(N1CCCCCC1)n2CCN1CCCCCC1 | 1 | -9 | -1.7 | -2 | -1%
Cn1c(N)c(S(=O)(=O)N2CCN(Cc3ccccc3)CC2)c(=O)n(C)c1=O | -4 | x | -0.3 | 4 | -8%
CCOc1ccc(-n2c(Cc3ccccc3)nnc2SCc2c(C)noc2C)cc1 | -6 | -13 | 1.9 | -6 | 3%
Cc1ccc(C)c(OCCC(=O)OCC(=O)Nc2cc(S(=O)(=O)N3CCOCC3)ccc2C)c1 | 0 | x | 14 | x | x
Cc1ccn2cc(-c3cccc(S(=O)(=O)N4CCCC4)c3)nc2c1 | 2 | x | -1.4 | x | x
Cc1ccc(NC(=O)CSCc2n[nH]c(=O)[nH]2)c(Br)c1 | 0 | x | 0.4 | -1 | 0%
CCn1c2ccccc2c2cc(NC(=O)CSc3nnnn3-c3ccccc3)ccc21 | 60 | -23 | -3.8 | -6 | 5%
CC1=CC2=NC(=O)/C(=C\c3cn(C)c4ccccc34)C(=N)N2O1 | -1 | x | -31 | 3 | 11%
NC(=O)c1ccsc1NC(=O)CS(=O)(=O)c1ccc(Cl)cc1 | -4 | x | -2.2 | x | x
CN(C)S(=O)(=O)c1ccc(N2CCCC2)c(C(=O)NCC2CCCCC2)c1 | -8 | x | 3.2 | -2 | 7%
CCOCCn1c(C(C)C)nc2ccccc21 | 7 | -18 | -0.6 | 5 | -8%
COc1ccccc1NC(=S)NC(C)C(c1cccs1)N1CCOCC1 (stereo not drawn) | -18 | x | 0.8 | x | -8%
O=C(Nc1ccccc1)Nc1nnc(COc2ccccc2F)s1 | 13 | x | -0.1 | x | -6%
COc1ccc(C2N(c3ccc(Cl)cc3)C(=O)C3CCCN32)cc1 (stereo not drawn) | 2 | -46 | 2.6 | -4 | -6% | Arbovirus inh repeat=4
O=C(NC1CCCc2ccccc21)C1CCN(S(=O)(=O)c2cccc(C(F)(F)F)c2)CC1 (stereo not drawn) | 9 | -9 | 3.9 | -1 | 9%
O=C(CSc1nnc(SCc2ccc(Cl)cc2)s1)N/N=C/c1ccc(C(=O)O)cc1 | 26 | x | -1.9 | x | 21%
COc1cc(C(=O)NCCOc2ccc(C)c(C)c2)cc(OC)c1OC | -2 | x | -2.8 | x | x

Gathered by group: the compounds so far containing fluorine
SMILES | Mtb betalactam | YopH inh | RecA splice inh | Arbovirus inh | Mtb growth | others
CCc1ccc2oc(=O)cc(CN3CCN(c4ccc(F)cc4)CC3)c2c1 | 22 | -18 | 4.1 | 3 | 14%
O=C(Nc1ccccc1)Nc1nnc(COc2ccccc2F)s1 | 13 | x | -0.1 | x | -6%
O=C(NC1CCCc2ccccc21)C1CCN(S(=O)(=O)c2cccc(C(F)(F)F)c2)CC1 (stereo not drawn) | 9 | -9 | 3.9 | -1 | 9%

The results go on.
SMILES | Mtb betalactam | YopH inh | RecA splice inh | Arbovirus inh | Mtb growth | others
CSc1nnc(OC(=O)N(C)C)n1-c1ccc(Cl)cc1 | -2 | x | 1.3 | x | 2%
CN(C)c1ccnc2sc(C(=O)NCc3ccccc3)c(N)c12 | 7 | -40 | -4.6 | -6 | -1% | Arbovirus inh repeat=-16
CSc1cccc(NC(=O)CN(c2ccccc2)S(=O)(=O)N(C)C)c1 | -1 | -42 | 0.9 | 7 | -3%
c1ccc(-c2cc(-c3nn4c(-c5ccco5)nnc4s3)c3ccccc3n2)cc1 | 21 | 13 | 4.2 | -9 | -8%
Cc1cccc(C(=O)OCC(=O)Nc2sc3c(c2C#N)CCC3)c1 | 2 | -39 | -0.7 | -1 | 0%
Cc1sc2c(=O)n3c(nc2c1C(=O)NC1CCCCC1)CCCCC3 | 1 | -31 | -1.8 | -41 | 2%
O=C(CN1C(=O)COc2ccccc21)NCCC1=CCCCC1 | 4 | -43 | 0.0 | 4 | 1%
Cc1ccccc1Nc1nnc(SCc2cc([N+](=O)[O-])cc3c2OCOC3)s1 | -4 | -15 | 2.3 | -1 | 0%
CC(=O)N/C(=C\c1ccc(C)o1)C(=O)NCc1ccccc1 | 0 | x | -0.7 | x | x
CCCCOc1ccc(C(=O)NN2CCN(C)CC2)cc1 | 0 | -21 | 10 | -2 | 4%
c1ccc(-c2nc(N3CCN(c4ccccc4)CC3)nc(-n3ccnc3)n2)cc1 | 99 | -25 | 2.2 | 1 | u
OC1C2CN3CN(C2)CC1(c1ccccc1)C3 (stereo not drawn) | x | x | -1.5 | x | -8%
O=C(COc1ccc2c3c(c(=O)oc2c1)CCC3)NCCCN1CCOCC1 | 6 | x | -2.8 | x | x
CC(C)CNc1nc(=S)nc(N(C)C)[nH]1 | 7 | -39 | -9.2 | 12 | 4%
CC12CCCCC1N(O)CN2O (stereo not drawn) | 1 | -35 | -11 | 9 | 6%
O=C1CN(C(=O)CSc2nnc(Nc3ccccc3)s2)c2ccccc2N1 | -1 | -4 | 0.3 | 2 | 4%
CCc1nc(N2CCN(CC(=O)NCC3CCCO3)CC2)c(C#N)c2c1COC(C)(C)C2 (stereo not drawn) | u | x | -2.6 | x | x
COc1cc(-c2nnc(SCC(=O)N3c4ccccc4Sc4ccccc43)o2)cc(OC)c1OC | -4 | -34 | 1.7 | -8 | 5%
C/C=C(\C)CN1CCC(Oc2cccc(C(=O)NCc3ccccn3)c2)CC1 | -6 | x | 1.7 | x | x
CCCc1cc(=O)oc2cc(C)cc(OCC(=O)NCCCN3CCOCC3)c12 | 2 | x | -1.8 | x | x
COc1ccc(-n2nnnc2SCC(=O)NC(=O)Nc2ccc3c(c2)OCCO3)cc1 | 0 | -21 | x | 2 | -11%
CCN(CC)CCOc1c(C)cccc1Cl | -2 | x | -0.5 | 2 | -5%
Cc1cc(=O)oc2cc(OCCCN3C(=O)c4ccccc4C3=O)ccc12 | 1 | -28 | 1.5 | -6 | -1%
CC1(C)N([O-])C(c2cccs2)=C[N+]1=O | 3 | -23 | -1.6 | 4 | -5%
O=S(=O)(c1ccccc1)N1CCN(CC2CC3C=CC2C3)CC1 (stereo not drawn) | 1 | x | 1.8 | -5 | -3%
O=C(Nc1ccc(-n2cccc2)cc1)C1CC1 | 96 | x | 1.1 | -4 | <0.2µM*
CC(C)C(C)NC(=O)COc1ncnc2ccccc12 (stereo not drawn) | -1 | -12 | 5.5 | -1 | -5%
CC(NC(=O)C(=O)NN=C1CCCCCCCCCCC1)c1ccccc1 (stereo not drawn) | -2 | -30 | 0.5 | 3 | -7%
Cc1ccccc1CN1CCN(Cc2cc3ccccc3o2)CC1CCO (stereo not drawn) | 4 | x | 0.2 | x | x
CCCCSc1nc(C)c(CC(=O)O)c(=O)[nH]1 | 1 | -27 | -2.0 | -5 | -8%
COc1ccccc1NC(=S)N1CCN(Cc2ccccc2)CC1 | 3 | -21 | -2.9 | 12 | -1%
Cc1ccc(S(=O)(=O)c2nc(S(C)(=O)=O)sc2N2CCC(O)CC2)cc1 | 7 | x | 16 | x | x
N#C/C(=C\c1c(Cl)cccc1Cl)c1nc2ccccc2o1 | 2 | -13 | 7.4 | 13 | 1%
CN(CC1CCOCC1)C(=O)CC1C(=O)NCCN1Cc1ccc(-c2ccccc2)cc1 (stereo not drawn) | 2 | x | 1.7 | 6 | 8%
O=[N+]([O-])c1ccc(NCCNCCOc2nonc2-c2ccccc2)c([N+](=O)[O-])c1 | 0 | x | -0.9 | 30* | 16%
COc1cccc(NC(=O)c2cccc(N3C(=O)C4C5C=CC(C5)C4C3=O)c2)c1 (stereo not drawn) | -3 | x | -0.4 | x | x
Cc1cc(C)cc(NC(=S)N2CCCC2)c1 | 1 | x | -0.9 | x | x
COCCCN1C(=O)c2ccc(C(=O)Nc3ccc(C)cc3C)cc2C1=O | -1 | x | -0.9 | x | x
CCCNC(=O)C(=O)Nc1cc2c3c(c1)CCC(=O)N3CCC2 | 6 | x | -1.0 | x | x
CCOCCCNC(=O)c1cc(Cl)c(NC(=O)C2=C(C)OCCS2)cc1OC | 81 | x | 1.5 | x | x
Cc1[nH]nc(N)c1-c1ccc(Cl)cc1 | 3 | x | 0.2 | -1 | -5%
N/C(=N\OC(=O)COc1ccccc1)c1cccnc1 | -6 | x | -0.6 | x | x
Cc1cc(NC(=O)CCC(=O)N(Cc2cccs2)C(C(=O)NC2CCCC2)c2ccccc2)no1 (stereo not drawn) | -4 | -19 | -1.4 | 2 | -7%
O=C1CCCN1CCCNS(=O)(=O)c1cccc(F)c1 | 0 | x | -0.6 | 19 | -3%
Cc1cc(C)nc(N2CCCC(C(=O)NCc3ccc4c(c3)OCO4)C2)n1 (stereo not drawn) | -4 | x | -1.9 | -10 | 1%
CCN(CC)CCCNC(=S)N(Cc1cccnc1)Cc1cc2cccc(C)c2[nH]c1=O | -5 | x | 2.1 | 4 | 1%
CNc1nc(Nc2ccc([N+](=O)[O-])cc2)nc(OCC(F)(F)F)n1 | 9 | x | -0.9 | x | x
CC(C)(C)c1ccc(NNC(=O)C2CCC2)cc1 | 2 | x | -1.7 | x | -5%
COc1ccc([C@@H]2C[C@@H](c3ccccc3)Oc3cc(OC)cc(OC)c32)cc1 | x | x | 1.2 | x | 1%
CCC(C)(C)n1nnnc1C(c1ccc2ncccc2c1)N1CCN(Cc2ccc3c(c2)OCO3)CC1 (stereo not drawn) | 4 | -30 | -0.9 | 7 | -3%
Next results:
SMILES | Mtb betalactam | YopH inh | RecA splice inh | Arbovirus inh | Mtb growth | others
COc1ccc(OC(C)C(=O)Nc2ccc(F)cc2F)cc1 (stereo not drawn) | -5 | x | 0.8 | 5 | 2%
CCOc1ccc(NC(=O)CSC2=C(C#N)C(c3ccc4c(c3)OCO4)CC(=O)N2)cc1 (stereo not drawn) | 94 | -19 | 3.2 | -23 | x
O=S(=O)(Nc1ccc(-c2csc(-c3ccccc3)n2)cc1)c1ccc(F)cc1 | 4 | -38 | -2.8 | -44 | 7%
N#CCC1c2ccccc2CCN1C(=O)Nc1cccc(C(F)(F)F)c1 (stereo not drawn) | 2 | -10 | 3.1 | -4 | -1%
CC(C)(C)NS(=O)(=O)c1ccc(CCC(=O)NCc2ccc3c(c2)OCO3)cc1 | 8 | -4 | 2.5 | -18 | 1%
COc1ccc(-c2nc3ccccc3c(=O)[nH]2)cc1 | 6 | x | -2.1 | x | x
CCCc1nc(SCC(=O)N2CCCC2)c2c(=O)n(C)c(=O)n(C)c2n1 | 0 | x | -2.9 | x | x
COc1ccc(-c2nnc(SCC(=O)NC(C)C)n2CC2CCCO2)cc1OC (stereo not drawn) | 1 | -8 | 0.3 | 6 | -10% | Arbovirus inh repeat=8
CC(=O)Nc1ccc(Nc2ncc([N+](=O)[O-])c(Nc3ccc(NC(C)=O)cc3)n2)cc1 | x | -21 | 2.9 | 10 | x
O=S(=O)(N1CCOCC1)n1c(Cc2ccccc2)nc2ccccc21 | -10 | -28 | 3.8 | -5 | 0%

Part of the list above in order of formula weight, high to low.
SMILES | Mtb betalactam | YopH inh | RecA splice inh | Arbovirus inh | Mtb growth | others
CC(=O)Nc1ccc(Nc2ncc([N+](=O)[O-])c(Nc3ccc(NC(C)=O)cc3)n2)cc1 | x | -21 | 2.9 | 10 | x
CC(C)(C)NS(=O)(=O)c1ccc(CCC(=O)NCc2ccc3c(c2)OCO3)cc1 | 8 | -4 | 2.5 | -18 | 1%
N#CCC1c2ccccc2CCN1C(=O)Nc1cccc(C(F)(F)F)c1 (stereo not drawn) | 2 | -10 | 3.1 | -4 | -1%

(continued)
SMILES | Mtb betalactam | YopH inh | RecA splice inh | Arbovirus inh | Mtb growth | others
CN(C)c1ccnc2c[cH-]cc12.[Fe].c1ccc(-[c-]2[c-](-c3ccccc3)[c-](-c3ccccc3)[c-](-c3ccccc3)[c-]2-c2ccccc2)cc1 (stereo not drawn) | 100&100 | x | 7.6&2.9 | x | u
CC(=C\C(=O)O)/C(=C/c1ccccc1)C(=O)O | 4 | -31 | 0.9 | 6 | -3%
COC(=O)c1ccc(CN2CCC(Oc3ccc(C(=O)N4CCCCC4)cc3)CC2)cc1 | 6 | x | 1.8 | x | x
COc1cc(NC(=S)Nc2cccnc2)cc(OC)c1OC | 4 | -15 | -2.1 | 1 | -4%
CCOC(=O)CN1NC2(CCCC(C)C2)NC1=S (stereo not drawn) | 6 | -10 | 1.4 | 2 | -1%
Cc1cccc(NC(=S)NCCSc2ccc(Cl)cc2)c1 | 33 | x | 16 | -29 | -5%
CCN(CC)CCn1c2c(c(SCC(=O)Nc3ccc(C)c(F)c3)nc1=O)CCCC2 | -2 | x | 1.2 | x | x

Compound activity from PubChem.

Some of the compounds tested. The share of hits here may be higher or lower than overall.
